D2 ag = agonists of human D2 dopamine receptor (beta-arrestin) | P14416 | DiscoveRx PathHunter D2 beta-arrestin, luminescence, 90 min; 100% = 57 uM dopamine signal | activation, % (test concentration not listed) | hit rate 0.084% among 360,000 | AID 624465; in the data active = activation above about 40%; inconclusive = about 15% to 40%; inactive = below about 15%; also: compound concentration not given in the record; the text of the record calls up to 30% inactive
Target sequence (P14416 whole entry, looked up): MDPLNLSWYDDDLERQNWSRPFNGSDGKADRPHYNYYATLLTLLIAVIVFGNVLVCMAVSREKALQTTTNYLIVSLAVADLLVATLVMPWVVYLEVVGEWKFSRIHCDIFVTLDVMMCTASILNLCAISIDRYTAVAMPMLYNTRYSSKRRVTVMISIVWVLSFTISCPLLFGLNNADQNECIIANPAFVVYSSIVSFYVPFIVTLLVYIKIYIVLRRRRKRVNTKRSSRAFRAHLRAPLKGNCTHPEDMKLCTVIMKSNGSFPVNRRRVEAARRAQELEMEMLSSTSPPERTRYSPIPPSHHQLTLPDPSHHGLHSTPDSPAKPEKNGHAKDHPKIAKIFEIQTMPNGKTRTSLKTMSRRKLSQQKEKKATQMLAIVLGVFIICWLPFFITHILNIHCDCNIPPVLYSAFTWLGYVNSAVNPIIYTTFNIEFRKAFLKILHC
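Agonist mode: compounds alone added to overnight-plated D2 PathHunter cells for 90 min at 37 C, with 57 uM final dopamine (EC100) defining full response. Beta-arrestin recruitment detected by chemiluminescent reagent, read after 1 h at ambient temperature.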
CtBP-E1A blk = CtBP/E1A binding inhibition; AlphaScreen GST-E1A/His-CtBP binding, 1536-well; active compounds read low; control for the full effect not named in the record; activity change, % (concentration not given with the values); hit rate 0.49% among 340,000; AID 651724; in the data active means activity change below about -65%; inconclusive means about -30% to -65%; inactive means above about -30%; also: % is scaled to controls: 0 for no effect and ±100 for the full control effect
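GST-E1A and His-tagged CtBP (125 nM each as 5X stock) were preincubated with pin-transferred compound for 2 h at 37 °C in the dark, then glutathione donor and nickel acceptor beads were added for 1 h before AlphaScreen reading.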
TRPML1 agonist = human mucolipin-1 channel agonism; Q9GZU1; TRPML1-expressing cells, Ca2+ dye fluorescence, FDSS; host cell line not named in the record; reference of the full effect not given here; activation, % (concentration not given with the values); hit rate 0.12% among 410,000; AID 624414; in the data active = activation above about 50%; inconclusive = about 30% to 50%; inactive = below about 30%; also: 0% is about no effect; the text of the record puts the active cut at 80%
Target sequence (Q9GZU1 whole entry, looked up): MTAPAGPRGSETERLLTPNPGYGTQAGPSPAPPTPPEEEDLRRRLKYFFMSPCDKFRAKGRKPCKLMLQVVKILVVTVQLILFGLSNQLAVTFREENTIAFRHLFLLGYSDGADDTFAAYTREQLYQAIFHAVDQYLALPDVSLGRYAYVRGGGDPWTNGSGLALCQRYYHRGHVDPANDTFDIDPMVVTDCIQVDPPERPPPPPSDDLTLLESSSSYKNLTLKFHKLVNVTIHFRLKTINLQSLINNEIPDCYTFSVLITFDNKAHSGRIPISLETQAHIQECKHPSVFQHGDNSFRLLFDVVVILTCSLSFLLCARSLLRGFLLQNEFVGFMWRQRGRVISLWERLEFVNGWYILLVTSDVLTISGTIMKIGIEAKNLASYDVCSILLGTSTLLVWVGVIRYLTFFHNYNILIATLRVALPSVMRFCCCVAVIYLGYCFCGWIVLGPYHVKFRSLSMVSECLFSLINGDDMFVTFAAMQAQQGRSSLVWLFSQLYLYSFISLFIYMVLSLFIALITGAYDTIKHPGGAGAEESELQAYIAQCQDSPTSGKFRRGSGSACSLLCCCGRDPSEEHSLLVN
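Tet-induced TRPML1-DL cells, 1,500 per well, cultured overnight, were loaded with a no-wash Ca2+ dye for 45–90 min. Calcium fluorescence was recorded on the FDSS for 110 s after compound addition, before the EC80 agonist (4 uM 54-4) was added.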
PINK1 modulator = PINK1 expression modulation | PINK1 immunofluorescence, high-content cytometry, 24 h | Potency, µM (top dose mostly 76.6 µM), without a hit: at the top dose activation (PINK1 increase), most hits filed as activators | hit rate 0.2% among 410,000 | AID 624263; active = well fitted activation curve with a large enough effect; inconclusive = small, poorly fitted or top-dose-only effect; inactive = flat fitted curve, though single readings scatter; cell line not stated here;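 also: potency is read from the fitted curve at half-maximal effect; % of control where 0% means no effect; nearly all actives have a fitted effect of over 65% in size; a mitochondrial uncoupler was the plate control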
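A stable cell line was treated with compounds at 5 concentrations for 24 hours, with CCCP as control. PINK1 levels and mitochondrial localization were measured by immunofluorescence with mitochondrial, cell and nuclear markers after fixation, read by laser-scanning cytometry.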
Six1-Eya2 inh = inhibitors of human Six1/Eya2 interaction | Q15475+O00167 | AlphaScreen GST-Six1/His-Eya2 binding, biochemical; active compounds read low; control for the full effect not named in the record | activity change, % (no concentration beside the values) | hit rate 0.56% among 360,000 | AID 651725; in the data active = activity change below about -65%; inconclusive = about -30% to -65%; inactive = above about -30%; also: % is scaled to controls: 0 for no effect and ±100 for the full control effect
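AlphaScreen with GST-Six1 and His-Eya2 (5X mix: 250 nM and 500 nM), glutathione donor and nickel acceptor beads; buffer 50 mM Tris pH 8.0, 300 mM NaCl, 1 mM TCEP; 1 h at 37 C in the dark.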
D2 PAM = potentiates the human D2 dopamine receptor allosterically. P14416. DiscoveRx D2 beta-arrestin cells, luminescence, 90 min; 100% = 57 uM dopamine signal. potentiation, % (concentration not given with the values). hit rate 0.23% among 360,000; active = potentiation of 50% or more; inconclusive = 30% to 50%; inactive = 30% or less;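 also: compound concentration not given in the record; tested on top of an EC20 dose of dopamine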
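PathHunter beta-arrestin assay in DiscoveRx D2 cells. Compounds were added with an EC20 of dopamine (50 nM final) for 90 min at 37 deg C. Luminescence was read 1 h after detection reagent, with 57 uM dopamine as the EC100 control.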
Active calls of the source: *; ? = inconclusive; · = not tested or not shown; & = joins results of further samples; [ ] = remark or other dose.

The line under a structure holds: D2 ag, CtBP-E1A blk, PINK1 modulator, D2 PAM, Six1-Eya2 inh, TRPML1 agonist
COc1ccccc1NC(=S)NC(=O)C(C)C
  -1.6, 0, ?, -9, -2, 0.9
CCOC(=O)N1CCC(N2CCCC(CO)(Cc3cccc(Cl)c3)C2)CC1 (stereo not given)
  -0.6, -2, 1.1%, -19, 4, -0.8
Cc1ccc(S(=O)(=O)NCCC(c2ccccc2)c2ccco2)cc1 (stereo not given)
  1.6, 2, 1.9%, 1, 1, 3.3
COc1ccc(-c2cc(C(=O)NN)n(-c3ccccc3)n2)cc1
  -0.5, -6, -0.3%, -7, 8, 0.2
O=C(NCC(=O)N1CC=C(c2ccccc2)CC1)c1ccc(OC(F)F)cc1
  8.3, ·, 11%, -1, 7, -0.4
CNC(=O)c1[nH]cnc1C(=O)Nc1cccc(C)c1
  0.6, ·, 7.7%, 0, -5, -0.1
Cc1cc2occ(CC(=O)N(CCC(C)C)c3c(N)n(Cc4ccccc4)c(=O)[nH]c3=O)c2cc1C
  -0.5, -3, 3.6%, -8, 3, 0.1
COC(=O)c1cn(CCOc2ccccc2F)c2ccccc12
  -0.2, 12, 0.9%, 0, 22, 5.5
O=C(CN1CCCC1)NC1C2CC3CC(C2)CC1C3 (stereo not given)
  1.1, 9, -2.0%, 1, 8, -0.8
Cc1ccc(S(=O)(=O)NCCC(c2ccccc2)c2ccccc2)cc1C(=O)O
  -3.8, -2, -1.4%, 12, 14, -0.3
CN1C(=O)Cc2cc(S(=O)(=O)NCc3cccs3)ccc21
  -2.3, 3, 1.0%, -1, 2, -1.2
Cn1c2c(c(=O)n(C)c1=O)C(c1ccc(F)cc1)C(C#N)=C(N)O2 (stereo not given)
  -5.3, -7, -0.4%, 6, 0, 0.7
COC(=O)c1n[nH]c2ccccc12
  -1.0, -1, -2.8%, -8, -3, 0.4
CC(C)CN(c1ccccc1)S(=O)(=O)c1nnc(NC(=O)c2ccco2)s1
  -2.1, -15, 0.0%&-0.9%, -30, 0, -0.2&0.6
CC(C)c1cc(NC(=O)C(C)(C)C)cc(C(C)C)c1O
  -2.9, 3, -0.6%, -21, 3, 1.9
O=c1c2ccccc2nc(/C=C/c2ccc(Cl)cc2)n1CCO
  -0.9, -15, 1.2%, -1, -9, -0.4
O=C(c1ccc(CNc2c(N3CCOCC3)c(=O)c2=O)cc1)N1CC=C(c2ccccc2)CC1
  3.1, -21, 1.9%, -5, -16, -0.9
COc1ccccc1C(=O)Nc1ccc(N2CCN(S(C)(=O)=O)CC2)cc1
  -4.9, 10, 0.4%, 8, -3, 0.3
COc1cc(/C=C/C(=O)OCC(=O)NC2CCS(=O)(=O)C2)ccc1OC(F)F (stereo not given)
  -1.3, ·, 3.1%, 1, -11, -0.8
CCOc1ccccc1N1CC(O)=C(c2nc3ccccc3s2)C1=N
  -2.8, 6, ·, -8, -6, 0.0
COc1cc(C(=O)Nc2ccc3c(c2)N(C(=O)CCN(C)C)c2ccccc2CC3)cc(OC)c1OC
  -1.2, -1, 5.0%, -10, 1, 0.4
O=C(OCc1cn([C@H]2CN(C(=O)C3CCCCC3)[C@@H](c3ccc(Cl)cc3)C[C@@H]2O)nn1)c1ccccc1
  -8.4, 2, 3.7%, 2, -4, -0.2
CCN(CC)S(=O)(=O)c1ccc(N2CCCC2)c(NC(=O)c2ccc(OC)cc2OC)c1
  -0.8, -11, 2.5%, -1, -11, 1.0
Cc1cccc(-c2n[nH]c([N+](=O)[O-])n2)c1
  -3.9, -4, 0.2%, -6, -7, -0.5
CN(CCO)Cc1csc2ccc(Br)cc12
  0.8, 4, 0.7%, -40, 4, 1.7
O=C(Cn1ncc2c3ccccc3n(Cc3ccccc3)c2c1=O)N1CCN(c2ccccn2)CC1
  -8.0, -15, 1.5%, 0, -3, 0.9
O=C(CCNS(=O)(=O)c1cccc2nsnc12)Nc1ccc2c(c1)OCCO2
  -3.2, 0, -0.8%, -10, -3, -0.8
CCCNC(=O)COc1ccc(-c2nn(C)c(=O)c3ccccc23)cc1
  6.4, 6, -0.9%, -17, 3, 0.3
Cc1cccc(N2CCN(C(=O)CN3C(=O)NC4(CCCCCC4)C3=O)CC2)c1C
  0.8, -1, 3.1%, 7, 4, -1.1
CCOC(=O)[C@]12CCC=C1N(Cc1ccc(Cl)cc1Cl)C(=O)[C@H](CC(=O)N1CCCC1)C2
  ·, -6, 0.8%, ·, -7, 0.4
COCCNC(=O)c1ccc(Cl)c(S(=O)(=O)Nc2cccc(C)c2C)c1
  -3.2, -4, -1.3%, -12, 5, 0.2
CC(C)CC(NS(=O)(=O)OCC(Cl)(Cl)Cl)c1ccccc1 (stereo not given)
  1.3, 18, -1.5%, 2, 9, 2.1
CCC1COCCS(=O)(=O)N1Cc1ccccc1C (stereo not given)
  -4.2, 5, -1.0%, -10, 1, 3.0&-0.9
Cc1ccc(C(=O)C2=C(O)C(=O)N(Cc3ccco3)C2c2cccc(Cl)c2)o1 (stereo not given)
  -1.4, 0, 2.2%, -6, 8, 1.6
Cc1ccc(NC(=O)c2oc3c(c2C)C(=O)CC(C)(C)C3)cc1
  -3.8, 2, 2.5%, -6, -2, 0.6
O=C(COC(=O)c1ccc(-c2nnc(-c3ccccc3)o2)cc1)c1ccccc1
  -1.1, 14, 3.0%, 12, 7, -0.4
CC(C)(C)OC(=O)N1CCC(CNC(=O)c2ccc(F)cc2)CC1
  2.7, 8, -0.1%, -4, 14, -0.6
Cc1ccc(-c2cnc(SCC(=O)N3CCCc4ccccc43)n2C)cc1
  -1.3, ?, -5.4%[38.3 µM], -11, -27, 1.3
Cc1ccc(OCCSc2nnc(-c3ccncc3)n2C)cc1
  -1.2, -2, -0.2%, -5, 4, 0.4
CCOC(=O)N1CCN(C(=O)CS(=O)(=O)Cc2nc(-c3ccccc3F)oc2C)CC1
  -6.5, -4, -0.4%, -17, 7, -0.7
COc1ccccc1Oc1c(C)oc2cc(OC(=O)c3ccco3)ccc2c1=O
  -3.9, -6, 1.9%[38.3 µM], -10, -1, 0.5
COc1ccc(Cn2c(C3CC3)nc3ccc(NC(=O)C4CC4)cc3c2=O)cc1
  -1.6, -3, 3.0%, -10, -9, 0.0
CCCCNc1nc2c(c(=O)[nH]c(=O)n2C)n1CCCc1ccccc1
  -3.3, -1, 0.2%, 1, -3, -0.5
C=CCn1c(SCC(=O)N(CC)CC)nc(O)cc1=O
  -1.8, 3, 1.4%[38.3 µM], -8, 4, 1.8
COc1ccc(CC(=O)N2CCN(c3cccc(C)c3C)CC2)cc1
  -2.0, ·, -0.4%, -12, 1, 0.7
O=C(/C=C/c1ccc([N+](=O)[O-])o1)NNC(=O)c1ccc(F)cc1
  0.4, -2, 8.9%, -6, -18, 0.0
Cc1ccc(SCC(=O)Nc2cccnc2)cc1
  -3.0, -3, 1.4%, -14, 9, -1.6
C[C@H]1CN([C@@H](C)CO)C(=O)c2cc(NS(=O)(=O)c3ccc(Cl)cc3)ccc2O[C@@H]1CN(C)CC1CCCCC1
  -1.8, 3, 6.1%, -16, -4, 1.0
COc1ccc(NC(=O)C(Cc2cc(C)cc(C)c2)C(C)C(=O)O)cc1 (stereo not given)
  -4.4, -15, 3.5%, -5, -4, 0.0
COc1cc2c(cc1OC)C(C(=O)Nc1cc(OC)c(OC)c(OC)c1)C(c1cccnc1)N(C)C2=O (stereo not given)
  -1.0, -2, -0.1%, -2, 10, 0.0
CCCn1c(C2CC(=O)N(c3cc(OC)ccc3OC)C2)nc2ccccc21 (stereo not given)
  4.4, -18, -1.1%, 3, 0, 0.0
Cc1ccc2cc(C#N)c(NCCNC(=S)NCCCN(C)C)nc2c1C
  0.0, ·, 3.1%, -2, 0, 2.1
O=C(NCC(=O)N1CCN(S(=O)(=O)/C=C/c2ccccc2)CC1)c1ccccc1F
  -1.4, 7, 6.8%, -1, 11, 0.5
COc1ccc(-c2nnc(-c3ccc(N(C)C)cc3)o2)cc1
  -1.5, -1, ?, 6, 2, 2.0
O=C(CCN1CCOCC1)c1ccccc1
  0.4, -7, ·, -5, -3, 0.9
CC1CCCN(C(=S)Nc2ccc(Nc3ccccc3)cc2)C1 (stereo not given)
  1.1, 3, 1.1%, -8, -21, 1.2
O=c1[nH]cnc(O)c1N=Nc1ccccc1
  -7.2, -3, 1.4%, -3, -12, -0.1
COc1ccc(N(CC(C)C)S(=O)(=O)c2nnc(NC(=O)c3ccco3)s2)cc1
  -4.4, 3, -1.4%&-0.3%, -28, -4, 0.1&3.5
O=C(NCCC1=CCCCC1)C1CCN(C(=O)c2ccc(Cl)cc2)CC1
  -1.8, 5, -1.6%[38.3 µM], -6, 4, 1.4
C/C(CC(=O)NC12CC3CC(CC(C3)C1)C2)=N\NC(=O)c1ccc(F)cc1
  -0.4, -11, 1.0%, -2, -1, -0.6

Exported bar-delimited: 4 of the compounds above
structure | D2 ag | CtBP-E1A blk | PINK1 modulator | D2 PAM | Six1-Eya2 inh | TRPML1 agonist
Cc1ccc(NC(=O)c2oc3c(c2C)C(=O)CC(C)(C)C3)cc1 | -3.8 | 2 | 2.5% | -6 | -2 | 0.6
O=C(NCCC1=CCCCC1)C1CCN(C(=O)c2ccc(Cl)cc2)CC1 | -1.8 | 5 | -1.6%[38.3 µM] | -6 | 4 | 1.4
COC(=O)c1n[nH]c2ccccc12 | -1.0 | -1 | -2.8% | -8 | -3 | 0.4
O=C(NCC(=O)N1CC=C(c2ccccc2)CC1)c1ccc(OC(F)F)cc1 | 8.3 | · | 11% | -1 | 7 | -0.4

(cont.)
The line under a structure holds: D2 ag, CtBP-E1A blk, PINK1 modulator, D2 PAM, Six1-Eya2 inh, TRPML1 agonist
COc1ccc(-n2c(COc3cccc4cccnc34)nnc2SCC(=O)O)cc1
  -6.2, 5, 2.5%, -10, -3, -0.2
CCOC(=O)c1[nH]c(C(=O)O)c(CCC(=O)OC)c1C
  -0.4, 7, -2.2%[38.3 µM], -3, 3, 0.6
COCC(=O)N(C)C1(c2nnnn2CCOC(=O)Nc2cccc3ccccc23)CCCC1
  -0.4, -1, 2.6%, ?, 6, 0.8
CCCn1nc(C(=O)Nc2cccc(S(=O)(=O)N(C)c3ccccc3)c2)c2ccccc2c1=O
  3.2, ·, -0.1%, 3, -2, 1.4
Cc1ccc(OCC(=O)Nn2cnnc2)c(Br)c1
  -2.4, 3, 4.3%[38.3 µM], -15, 2, -0.5
CCNc1nc(NC(C)C)nc(Oc2ccc(OCCOc3ccccc3)nn2)n1
  -0.1, -9, -2.2%[38.3 µM], -4, -8, 1.6
COc1cccc(N2CCN(C(=S)Nc3ccc(F)cc3)CC2)c1
  9.6, ·, 0.0%, 0, -2, -1.1
CC(C)(C)C1CCc2c(C(=O)NNC(=O)/C=C/C(=O)O)csc2C1 (stereo not given)
  -3.6, 2, 2.4%, -8, -5, 0.3
CCOC(=O)C(CC)(CC)C(=O)/C=C/c1cccc(Br)c1
  -6.8, 4, -1.7%, -23, -3, -0.3
CC(C)(O)[C@@H]1CC[C@@](C)(C2CC[C@]3(C)C2[C@H](O)CC2[C@@]4(C)CC[C@H](O)C(C)(C)C4[C@@H](O[C@H]4O[C@@H](CO)[C@H](O)[C@@H](O)[C@@H]4O[C@@H]4O[C@H](CO)[C@@H](O)[C@H](O)[C@H]4O)C[C@]23C)O1 (stereo in doubt)
  0.9, 5, 1.5%, -35, -12, -0.2

Compound activity deposited in PubChem BioAssay by National Center for Advancing Translational Sciences (NCATS).
